# Screening data as filed in PubChem.
# CtBP-E1A inh = inhibitors of CtBP/E1A interaction | AlphaScreen GST-E1A/His-CtBP binding, 1536-well; active compounds read low; control for the full effect not named in the record | activity change, % (test concentration not listed) | hit rate 0.49% among 340,000 | AID 651724; in the data active means activity change below about -65%; inconclusive means about -30% to -65%; inactive means above about -30%; note: % is set by controls: 0 for no effect and ±100 for the full control effect
#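 Steps: dispense buffer (Tris pH 8.0, NaCl 300 mM, TCEP 1 mM, BSA, Tween 20); add 5X protein mix (GST-E1A, His-CtBP, 125 nM each); pin 23 nL compound; 2 h at 37 °C, dark; add 5X beads (50 ug/mL); 1 h; read.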
# TRPML1 inh = inhibitors of human TRPML1 channel | hit rate 0.02% among 390,000 | activity change, negative = inhibition, % (no concentration beside the values) | AID 624415 | Q9GZU1 | TRPML1-inducible cells, Ca2+ dye fluorescence, FDSS; active compounds read low; inhibition of EC80 agonist-evoked calcium signal; in the data active means activity change below about -50%; inconclusive means about -30% to -50%; inactive means above about -30%;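 note: stimulus is agonist 54-4 at its EC80 concentration; % is set by controls: 0 for no effect and ±100 for the full control effect; compound concentration not given in the record; the text of the record puts the active cut at -80%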
# Target sequence (Q9GZU1 whole entry, looked up): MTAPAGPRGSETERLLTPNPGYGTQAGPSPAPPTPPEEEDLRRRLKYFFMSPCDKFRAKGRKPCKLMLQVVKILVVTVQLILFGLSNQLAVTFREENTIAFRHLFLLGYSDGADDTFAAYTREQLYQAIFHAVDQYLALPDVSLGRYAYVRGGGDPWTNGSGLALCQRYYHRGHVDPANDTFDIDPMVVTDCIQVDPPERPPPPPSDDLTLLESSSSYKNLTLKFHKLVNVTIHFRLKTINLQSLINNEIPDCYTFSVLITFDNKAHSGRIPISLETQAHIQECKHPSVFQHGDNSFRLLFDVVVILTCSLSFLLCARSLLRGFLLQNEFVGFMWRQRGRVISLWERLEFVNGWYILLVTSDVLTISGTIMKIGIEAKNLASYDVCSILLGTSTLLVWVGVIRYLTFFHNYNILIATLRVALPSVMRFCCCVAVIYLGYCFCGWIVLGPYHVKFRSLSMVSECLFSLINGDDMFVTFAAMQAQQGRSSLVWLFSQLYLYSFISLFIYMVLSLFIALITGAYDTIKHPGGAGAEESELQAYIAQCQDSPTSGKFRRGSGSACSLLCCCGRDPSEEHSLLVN
#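 Tet-induced TRPML1-DL cells loaded with Ca8 no-wash calcium dye were read kinetically on FDSS. Compound addition was followed by EC80 agonist 54-4 (4 uM final); inhibition was read over 110 s.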
# Six1-Eya2 inh = Six1/Eya2 interaction inhibition; Q15475+O00167; AlphaScreen GST-Six1/His-Eya2 binding, biochemical; active compounds read low; control for the full effect not named in the record; activity change, % (no concentration beside the values); hit rate 0.56% among 360,000; AID 651725; in the data active = activity change below about -65%; inconclusive = about -30% to -65%; inactive = above about -30%; note: % is set by controls: 0 for no effect and ±100 for the full control effect
#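 Homogeneous AlphaScreen proximity assay pairing GST-Six1 with His-tagged Eya2 (added as 5X mix: 250 nM and 500 nM) in 50 mM Tris pH 8.0, 300 mM NaCl, 1 mM TCEP. Glutathione donor and nickel acceptor beads; 1 h, 37 °C, dark.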
# D2 agonist = human D2 receptor agonism in beta-arrestin assay | AID 624465 | DiscoveRx PathHunter D2 beta-arrestin, luminescence, 90 min; 100% = 57 uM dopamine signal | activation, % (test concentration not listed) | hit rate 0.084% among 360,000 | P14416; in the data active = activation above about 40%; inconclusive = about 15% to 40%; inactive = below about 15%; note: compound concentration not given in the record; the text of the record calls up to 30% inactive
# Target sequence (P14416 whole entry, looked up): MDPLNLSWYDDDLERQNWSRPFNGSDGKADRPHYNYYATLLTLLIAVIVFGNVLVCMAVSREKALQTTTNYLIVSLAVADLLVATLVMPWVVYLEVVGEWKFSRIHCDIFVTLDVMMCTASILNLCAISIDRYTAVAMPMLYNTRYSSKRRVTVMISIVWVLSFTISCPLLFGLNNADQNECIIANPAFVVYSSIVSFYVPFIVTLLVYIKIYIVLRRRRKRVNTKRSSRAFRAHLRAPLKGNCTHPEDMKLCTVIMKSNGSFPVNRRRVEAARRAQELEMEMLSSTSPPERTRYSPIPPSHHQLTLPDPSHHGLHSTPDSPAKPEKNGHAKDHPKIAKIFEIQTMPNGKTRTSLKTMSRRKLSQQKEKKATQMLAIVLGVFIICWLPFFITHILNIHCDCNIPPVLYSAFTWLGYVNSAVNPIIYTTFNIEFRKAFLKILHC
#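 Agonist mode: compounds alone added to overnight-plated D2 PathHunter cells for 90 min at 37 C, with 57 uM final dopamine (EC100) defining full response. Beta-arrestin recruitment detected by chemiluminescent reagent, read after 1 h at ambient temperature.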
# TRPML1 ag = human mucolipin-1 channel agonism. Q9GZU1. TRPML1-expressing cells, Ca2+ dye fluorescence, FDSS; host cell line not named in the record; reference of the full effect not given here. activation, % (no concentration beside the values). hit rate 0.12% among 410,000; in the data active = activation above about 50%; inconclusive = about 30% to 50%; inactive = below about 30%; note: 0% is about no effect; the text of the record puts the active cut at 80%
#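 Calcium fluorescence on an FDSS kinetic reader gave the read-out. Tet-induced TRPML1-DL cells were plated overnight, dye-loaded (Ca8 with quencher, 45-90 min, room temperature, dark), then read 110 s after compound addition, and again 110 s after 4uM final 54-4 (EC80).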
# PINK1 expr mod = PINK1 expression modulation. Potency, µM (highest dose often 76.6 µM), inactives show at the top dose activation (PINK1 increase), most hits filed as activators. AID 624263. PINK1 immunofluorescence, high-content cytometry, 24 h. hit rate 0.2% among 410,000; active = well fitted activation curve with a large enough effect; inconclusive = small, poorly fitted or top-dose-only effect; inactive = flat fitted curve, though single readings scatter; cell line not stated here;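 note: potency is the fitted concentration of half-maximal effect; % of control where 0% means no effect; nearly all actives have a fitted effect of over 65% in size; a mitochondrial uncoupler was the plate control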
#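 PINK1 protein, normally rapidly degraded, was detected by immunofluorescence after 24 hour compound treatment of a stable cell line. Titration data (5 concentrations) came from laser-scanning cytometry, with CCCP-treated wells as controls.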
# The depositor's hits bear a star; ? = inconclusive; . = no result given; & = joins results of further samples; [ ] = another dose, or the depositor's remark.
SMILES,CtBP-E1A inh,TRPML1 inh,Six1-Eya2 inh,D2 agonist,TRPML1 ag,PINK1 expr mod
Oc1ccc(Cl)cc1CNCc1ccc(F)c(F)c1,0,-16,10,-0.8,3.9,5.4%
C/C(=N\Nc1cccc2cccnc12)c1ccc(N)cc1,-17,-5,-13,2.6,-0.3,3.4%
Cc1noc(C)c1COc1ccc(C(=O)OCC(=O)NC(=O)C2COc3ccccc3O2)cc1 (stereo not given),-4,1,5,-4.1,-0.1,-4.3%
COc1ccc(S(=O)(=O)N2CCCCCC2)cc1,9,-10,8,-0.2,-0.8,2.2%
CC(=O)Nc1cccc(Oc2ccc3c(c2)C(=O)NC3=O)c1,-10,-10,9,5.4,0.4,3.3%
O=C(NNC(=O)c1ccccc1-n1cccc1)c1cncc(Br)c1,-7,-1,0,-6.6,0.2,0.6%
O=C(O)CSc1cnc2ccccc2n1,0,12,0,-3.4,-0.9,-3.0%
COc1ccc(-n2nnnc2SCC(=O)Nc2nnc(C)s2)cc1OC,-1,-5,0,-1.8,-0.7,-0.8%[38.3 µM]
COc1ccc(OC)c(NC(=O)c2cc(S(=O)(=O)NCc3ccco3)ccc2F)c1,-26,-3,-22,0.6,2.5,4.2%[38.3 µM]
COc1ccc(-c2cn3cccnc3n2)cc1NC(=O)COc1ccccc1,.,-3,.,.,2.9,1.6%
Cc1ccc(-c2cc3nn(-c4ccccc4)c(N)c3c(=O)o2)cc1,-14,-7,-3,-0.3,0.4,13%[38.3 µM]
CSc1cccc(NC(=O)Nc2ccccc2OCc2cc(=O)n3cc(C)ccc3n2)c1,.,-2,.,.,0.2,0.8%
CC1(C)CC2CC(C)(CN2C(=O)c2cc(-c3ccc(O)cc3)on2)C1 (stereo not given),-1,7,0,-1.5,0.7,6.5%
C=CCNC(=O)COC(=O)c1ccc(Cl)c(S(N)(=O)=O)c1,0,13,4,3.9,1.2,-1.2%
CCCSCCCNC(=O)C1CCN(c2nn3cc(-c4ccc(F)cc4)nc3s2)CC1,.,-1,.,.,0.9,0.3%
O=P(O)(O)CCP(=O)(c1ccccc1)c1ccccc1,8,1,6,3.5,0.4,.
CSc1nc2cc(C)nn2c(-c2ccc(C(C)(C)C)cc2)c1C#N,-18,?,1,-1.8,-0.1,11%
O=C(NCCC1CCCCN1S(=O)(=O)c1ccccc1)C(=O)NCC1CCCO1 (stereo not given),-1,16,3,0.1,1.4,-0.9%
O=C(CCNC(=O)c1ccccc1Cl)Nc1nc2ccc(F)cc2s1,.,-3,-16,1.0,-0.6,-0.4%
Cn1c(SCC(=O)NCc2ccccc2)nc2ccccc21,15,4,11,0.6,-0.2,2.4%
O=C1c2ccccc2-c2cc(Br)ccc2NC1O (stereo not given),1,13,2,-1.5,0.1,1.7%
COc1ccc(NC(=O)Nc2nnc([C@@H]3C[C@H](O)[C@@H](CO)O3)s2)cc1,3,.,-1,4.6,-0.6,-0.9%
CCOC(=O)/C=C/CN(C(=O)OC(C)(C)C)S(=O)(=O)N1CC=CC1,.,0&-17,0,1.0,0.7&0.5,1.1%
CN(CC(=O)Nc1cccc(S(=O)(=O)N2CCCC2)c1)Cc1ccccc1,-1,3,-6,-3.6,0.4,2.8%
COc1cc2[nH]c3c(=O)n4c(nc3c2cc1OC)SCCC4,?,14,-26,0.2,0.3,-1.3%
O=C(Nc1ccccc1N1CCCC1)c1ccc(Br)o1,-18,14,-11,2.8,0.5,2.6%[38.3 µM]
C=CCN(C(=O)CNC(=O)c1ccco1)C(C(=O)NC1CCCCC1)c1ccccc1F (stereo not given),2,-1,1,-3.8,-1.0,2.6%
O=C(NCc1ccco1)c1ccc(CS(=O)(=O)Cc2ccc(F)cc2)o1,2,34,-5,-5.8,0.9,-0.3%
CC(=O)c1ccc(S(=O)(=O)N(C)CCCC(=O)N(C)Cc2ccccc2F)cc1,-4,22,11,-2.2,1.0,0.7%
Brc1ccc(-c2csc(N/N=C/c3ccco3)n2)cc1,-4,1,-18,?,0.1,8.9%
CCOC(=O)c1[nH]c2ccccc2c1NC(=O)CN1CCCCC1,-1,12,-12,-8.2,1.5,-1.0%
Cc1ccc(S(=O)(=O)c2c(N)n(CCN3CCOCC3)c3nc4ccccc4nc23)cc1C,4,0,6,-4.7,1.2,1.0%
O=C(CSc1n[nH]c(-c2ccccc2O)n1)N1CCOCC1,-3,21,-8,-3.9,-0.3,0.6%
CCOC(=O)C1CCCN(C(=O)c2cc(OC)ccc2Br)CC1 (stereo not given),11,.,0,5.5,-0.4,1.7%
COc1ccccc1C(=O)Nc1ccc2c3c(cccc13)CC2,-9,19,13,-0.3,1.2,4.2%
CCN(CC(=O)Nc1c(F)cccc1F)C(=O)c1cc2c(cc1Cl)N1CCCCCC1=NS2(=O)=O,1,11,-2,3.0,0.3,-0.3%
COc1cc(CC(=O)NCCCc2ccccc2)cc(OC)c1OC,3,16,-5,-4.1,-0.3,-0.1%
CNC(=O)Oc1ccc2c(c1)[C@]1(C)CCN(C)[C@@H]1N2C,4&9,-3&4,-2&1,?,0.8&0.7&0.2,-0.1%&2.2%&0.1%
CCOC(=O)c1[nH]nc(-c2c(O)cc(C)cc2O)c1-c1csc(C)n1,4,-2,-1,-2.3,-0.3,-0.5%
COc1ccc(COC[B-](F)(F)F)cc1,-7,-11,15,-1.0,2.4,2.1%
O=C(Nc1ccc(OCCO)cc1)c1csc([C@@H]2O[C@H](CO)[C@H](O)[C@H](O)[C@H]2O)n1,4,.,0,-3.0,-0.3,-0.3%
Cc1ccc(NC(=O)CS(=O)CC(=O)Nc2cccc(C)c2C)cc1F (stereo not given),0,9,3,-2.1,-0.4,0.5%
CC(=O)c1ccc(OCc2cc(C(=O)NCC3CCCCO3)no2)cc1 (stereo not given),1,15,-1,-4.0,0.4,3.6%
O=C(COC(=O)C1c2ccccc2Oc2ccccc21)Nc1ccc2c(c1)OCO2,-1,8,-17,0.5,-0.3,-1.4%
CCn1c(=O)c(C(=O)NNC(=O)c2ccc(Cl)cc2Cl)c(O)c2ccccc21,-15,22,?,-5.8,3.1,2.3%
CC(C)CCN1CCC(n2nccc2NC(=O)C2CCOC2)CC1 (stereo not given),1,-22,3,-3.6,-0.5,-1.0%
Cc1cn(C)c(CC(=O)N2CCN(c3cccc(C(F)(F)F)c3)CC2)c1C(=O)O,.,3,.,.,-0.2,-1.0%
Cc1ccc(C(=O)Nc2nnc(COCCO)s2)cc1,-5,.,1,-4.8,-0.2,0.5%
CC(C)Oc1ccc(C(CCNCc2ccc(O)cc2)c2ccccc2)cc1 (stereo not given),-1,.,-2,-9.3,.,-1.2%
COc1ccc(C2CC(=O)c3cc(-c4nc(-c5cccc([N+](=O)[O-])c5)cs4)c(=O)n(-c4ccccc4C)c3C2)cc1 (stereo not given),.,-9,.,.,0.4,1.2%
CC(C)OCCCn1c(=S)[nH]c2ccc(N3CCOCC3)cc2c1=O,2,22,-1,0.2,-0.2,3.6%[38.3 µM]
Cc1cc2n(n1)SC(Nc1ccccc1)N2 (stereo not given),5,-5,-1,-0.8,-0.9,0.1%
COc1ccc(N2CCN(S(=O)(=O)c3cc4c5c(c3)C(C)C(=O)N5CCC4)CC2)cc1 (stereo not given),-1,4,-13,1.7,0.3,-3.6%
CCOc1ccccc1C1CC(=O)Nc2cc3c(cc21)OCCO3 (stereo not given),-18,-16,-1,2.8,0.3,3.0%
COc1nc(C)cc(C)c1S(=O)(=O)c1ccc(Cl)cc1,10,-3,4,-4.1,0.6,0.8%
O=C(O)c1ccccc1-c1ccccc1C(=O)Nc1ccc(-c2nc3cc(Cl)ccc3o2)cc1,.,-15,-14,-1.0,0.4,1.2%
Cc1ccc(S(=O)(=O)/N=C/c2ccc(N(C)C)cc2)cc1,3,-12,6,-3.8,0.2,0.9%
O=C(C1CCCO1)N1CCC(O)(c2ccccc2)CC1 (stereo not given),0,-1,5,-1.4,0.1,0.1%
COc1n[nH]c(C(=O)Nc2nc3ccccc3s2)c1[N+](=O)[O-],-5,10,-9,-2.9,-0.5,2.6%
CC(=O)Nc1cccc(OCCCNC(=O)C2CCC2)c1,-18,2,-4,-1.6,0.5,-0.7%

# Later entries
SMILES,CtBP-E1A inh,TRPML1 inh,Six1-Eya2 inh,D2 agonist,TRPML1 ag,PINK1 expr mod
CC(C)N(C(=O)Cn1c(SCC(=O)N2CCN(c3ccccc3)CC2)nc2ccccc21)C(C)C,-4,-7,0,-1.5,-0.4,.
CCOc1cc2sc(N3CCC(C(=O)Nc4ccc(C(C)C)cc4)CC3)nc2cc1Br,.,-21,.,.,2.0,-0.1%
C=CCn1c(SCC(=O)c2ccc(O)c(O)c2)nnc1-c1ccc(OC)cc1,-5,19,-10,-0.8,1.7,0.6%
CCCCOc1ccccc1Cn1c(=O)oc2ccccc21,22,1,50,-3.4,-0.1,0.9%
O=C(NN=C1CCC(=NNC(=O)c2cccnc2)CC1)c1cccnc1,-11,-12,-9,-6.6,-0.3,0.6%
Cc1nc2nc(SCC(=O)N3CCOCC3)nn2c(C)c1Cc1c(F)cccc1Cl,-6,36,0,-2.5,-0.3,0.6%
O=C(Nc1cccc(Cl)c1)Nc1ccc(Cl)cn1,-1,-2,7,-2.2,0.1,3.5%
Cc1ccc2[nH]c3c(=O)n(CC(=O)N4CCN(c5cccc(C(F)(F)F)c5)CC4)ncc3c2c1,.,8,.,.,2.9,1.0%
CCC(C)NC(=O)CC1Oc2ccc(C)cc2NC1=O (stereo not given),2,-16,0,-4.0,0.2,1.1%
Cc1cc(Nc2ccc(Cl)cc2C)nc(-n2nc(C)cc2C)n1,.,-15,.,.,-0.1,0.3%
CN1CCN(C(=O)c2cnn(-c3ccccc3)c2NC(=O)c2ccc([N+](=O)[O-])cc2)CC1,5,1,6,-0.8,1.0,0.6%
O=C(NCc1ccccc1Cl)c1cccn1-c1nnc(N2CCCCC2)s1,.,3,.,.,1.9,0.9%
Cn1c(SCC(=O)Nc2ccc3[nH]c(=O)[nH]c3c2)nnc1-c1ccc(F)cc1,-12,8,-1,-2.3,0.4,1.7%

# Entries of single compounds from above. Order of screens: CtBP-E1A inh	TRPML1 inh	Six1-Eya2 inh	D2 agonist	TRPML1 ag	PINK1 expr mod
# Record of `O=C(NCc1ccccc1Cl)c1cccn1-c1nnc(N2CCCCC2)s1` : .	3	.	.	1.9	0.9%
# Record of `CC(C)Oc1ccc(C(CCNCc2ccc(O)cc2)c2ccccc2)cc1` (stereo not given) : -1	.	-2	-9.3	.	-1.2%
# Record of `CCOC(=O)/C=C/CN(C(=O)OC(C)(C)C)S(=O)(=O)N1CC=CC1` : .	0&-17	0	1.0	0.7&0.5	1.1%
# Record of `C/C(=N\Nc1cccc2cccnc12)c1ccc(N)cc1` : -17	-5	-13	2.6	-0.3	3.4%
# Record of `Cc1cc(Nc2ccc(Cl)cc2C)nc(-n2nc(C)cc2C)n1` : .	-15	.	.	-0.1	0.3%
